High-throughput results: PubChem BioAssay, ICCB-Longwood Screening Facility, Harvard Medical School
Sa growth inh = S. aureus growth inhibition at 42 and 30 °C, primary screen, LtaS inhibitor project, RN4220, two temperatures. OD600, 20 h, 42 °C; active compounds read low. relative growth, % (concentration not given with the values). actives 0.53% (n = 170,000). AID 720641, 2013;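 active = growth at 42 °C up to 50% and 20 or more points under that at 30 °C, or under 10% at both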;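 note: 300 nL library stock went into each well; scaled to the means of positive and negative controls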
HCMV UL50-53 inh = inhibitors of HCMV UL50-UL53 interaction, biochemical, HTRF. HCMV UL50-UL53 nuclear egress complex (human cytomegalovirus). normalized percent inhibition. inhibition, % (concentration not given with the values). actives 0.15% (n = 190,000). AID 1918969, 2023;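 active = both replicates at 50% or more, plus weaker picks with an unusually low signal ratio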;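 note: stock transfer was 100 nL into about 20 µL; 0% = negative control wells and 100% = wells with untagged competitor protein; inactives centre near -12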
GIV-Gai inh = inhibitors of GIV peptide binding to Galpha-i3, primary screen, biochemical, fluorescence polarization, FITC-GIV GBA peptide, rat Galphai3 | 90 min; active compounds read low; scaled: aluminum fluoride 0%, vehicle 100% | percent of control (FP), % (concentration not given with the values) | actives 0.42% (n = 210,000) | AID 1224905, 2016;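 active = replicate mean at 85% of control or lower, very high polarization wells dropped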;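 note: wells of about 15 µL received 100 nL stock; the first replicate is given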
Target sequence (P08753 whole entry, looked up): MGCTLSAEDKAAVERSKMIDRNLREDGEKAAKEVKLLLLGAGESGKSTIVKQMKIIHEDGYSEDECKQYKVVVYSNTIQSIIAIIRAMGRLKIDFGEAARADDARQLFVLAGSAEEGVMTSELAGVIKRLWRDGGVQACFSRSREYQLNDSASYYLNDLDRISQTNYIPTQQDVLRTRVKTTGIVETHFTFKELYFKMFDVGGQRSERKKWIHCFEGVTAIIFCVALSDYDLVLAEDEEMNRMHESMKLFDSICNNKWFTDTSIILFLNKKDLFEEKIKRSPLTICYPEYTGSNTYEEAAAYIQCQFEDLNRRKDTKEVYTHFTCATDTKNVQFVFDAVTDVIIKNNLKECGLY
Sa growth inh second temp = further read-out of Sa growth inh, marked with its call; relative growth, %; measured here: growth at 30 °C;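 optical density after 20 h as mean of two plates; 100% = untreated growth and lower means inhibition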
Starred values were filed as active, the others as inactive; x = not tested or not shown; & = joins results of further samples.

1) COc1ccc(CC(=O)Oc2ccc(C#N)cc2)cc1
2) CN(C)S(=O)(=O)c1ccc(C(=O)NCCc2ccccc2)cc1
3) O=C(O)c1ccc(N=Cc2cn(Cc3ccccc3)c3ccccc23)cc1
4) N#CCSc1ccc(OC(F)(F)F)cc1
5) Cn1c(C(=O)O)ccc1S(=O)(=O)N1CCCCCC1

entry no.,1,2,3,4,5
Sa growth inh,108,117,98,89,98
Sa growth inh second temp,92,101,100,79,94
HCMV UL50-53 inh,-27,0,x,-9,-6
GIV-Gai inh,101,109,108,102,109

6) CCOc1cc(C2CC(=O)NC(SCC(=O)Nc3ccccc3C)=C2C#N)ccc1O (stereo not given)
7) CN1CCC(N(C)CC(O)COCc2cccs2)CC1 (stereo not given)
8) Cc1ccccc1-c1nnn(CC(=O)Nc2sc3c(c2C#N)CCC(C(C)(C)C)C3)n1 (stereo not given)
9) C[N+](C)(C)CCOP(=O)(O)OP(=O)([O-])OC[C@H]1O[C@@H](n2ccc(N)nc2=O)C(O)[C@H]1O (stereo not given in full)
10) CCOC(=O)c1ccc2c(c1)nc(SCC(=O)c1ccc3c(c1)OCCO3)n2CC

entry no.,6,7,8,9,10
Sa growth inh,x,82,90,x,89
Sa growth inh second temp,x,87,90,x,90
HCMV UL50-53 inh,-23,-13,-14,-17,-11
GIV-Gai inh,102,x,104,106,x

11) O=C(O)C1CC(=O)N(CCC23CC4CC(CC(C4)C2)C3)C(=Nc2ccc(Cl)cc2)S1 (stereo not given)
12) C[C@@H]1C(=O)NC2=Nc3cccc(Cl)c3CN21
13) Oc1ccccc1CNc1ccccc1Br
14) O=C1CC(c2ccc(Cl)cc2)CC(O)=C1C=NCCN1CCNCC1 (stereo not given)
15) CCOC(=O)/C(=N\O)C1=NC2(CCCC2)Cc2cc(OC)c(OC)cc21

entry no.,11,12,13,14,15
Sa growth inh,-0.5*,x,103,105,94
Sa growth inh second temp,-0.8*,x,65,97,104
HCMV UL50-53 inh,-60,-10,-17,8,x
GIV-Gai inh,x,102,102,106,105

16) CSc1cccc(NC(=O)C2CCN(S(=O)(=O)c3ccc4[nH]c(=O)oc4c3)CC2)c1
17) CCCN(CCC)S(=O)(=O)c1ccc(C(=O)Nc2nnc(-c3cccc(OC)c3)o2)cc1
18) O=C(Nc1ccc(Cl)c(Cl)c1)c1c(O)c2ccccc2[nH]c1=O
19) C(=NCc1cccnc1)c1c2ccccc2cc2ccccc12
20) Cc1ccc(OC(=O)Cn2c(C(F)(F)F)nc3ccccc32)cc1

entry no.,16,17,18,19,20
Sa growth inh,99,0.1*,133,114,x
Sa growth inh second temp,81,-0.2*,99,66,x
HCMV UL50-53 inh,-4,36,-2,x,-19
GIV-Gai inh,98,102,98,98,96

An excerpt of these results, tab-delimited.
item	Molecule	Sa growth inh	Sa growth inh second temp	HCMV UL50-53 inh	GIV-Gai inh
20	Cc1ccc(OC(=O)Cn2c(C(F)(F)F)nc3ccccc32)cc1	x	x	-19	96
16	CSc1cccc(NC(=O)C2CCN(S(=O)(=O)c3ccc4[nH]c(=O)oc4c3)CC2)c1	99	81	-4	98

(further entries)
21) O=C1CC2(CCCC2)CC(=O)N1CCCCN1CCN(c2ncccn2)CC1
22) C=CC(=O)N1CN(C(=O)C=C)CN(C(=O)C=C)C1
23) CCOC(=O)C(C)(C)Sc1nc2c(c(=O)n1-c1ccc(F)cc1)SCC2
24) Cc1cccc(-n2ncc3c(Nc4ccc(Oc5ccc(Cl)cc5)cc4)ncnc32)c1
25) NS(=O)(=O)c1ccc(Br)cc1I

entry no.,21,22,23,24,25
Sa growth inh,90&99,98,114,122,107
Sa growth inh second temp,91&94,95,87,80,92
HCMV UL50-53 inh,-34&-18&-1&-52&-7,-4,x,x,6
GIV-Gai inh,100&104,96,105,101,102

26) CCOc1ccc(Br)c(CC2C(=O)Nc3c(C)cc(C)cc32)c1 (stereo not given)
27) Cc1ccc(-n2nc3c(N4CCC(C(=O)NC(C)c5ccccc5)CC4)nnc(C)c3c2C)cc1 (stereo not given)
28) CCC(=O)N1C(CC(=O)Nc2ccc(F)cc2)C(=O)NC2CCCCC21 (stereo not given)
29) Cc1ccc(OCC(O)CN2CC(C)CC(C)C2)cc1 (stereo not given)
30) COC(=O)COc1cc(OC)ccc1C(=O)OC

entry no.,26,27,28,29,30
Sa growth inh,x,94,122,94,97
Sa growth inh second temp,x,101,86,98,83
HCMV UL50-53 inh,-20,x,x,-14,-6
GIV-Gai inh,106,109,106,x,103

31) CCC(C)NC(=O)CSc1nc2ncccc2n2cccc12 (stereo not given)
32) CCN1C(=O)c2c(C(=O)N3CCOCC3)ncn2CC1(C)C(=O)NCCCOC(C)C (stereo not given)
33) Cc1ccc(C)c(NC(=O)C2CCCN2S(=O)(=O)c2ccc3c(c2)n(C)c(=O)c(=O)n3C)c1 (stereo not given)
34) O=S(=O)(NCCN1CCOCC1)c1ccc2ccccc2c1
35) Cc1ccc(-n2nc(C)c3c(C)cc(=O)n(CC(=O)NCc4ccc(OC(C)C)cc4)c32)cc1

entry no.,31,32,33,34,35
Sa growth inh,x,x,109,84,92
Sa growth inh second temp,x,x,95,98,98
HCMV UL50-53 inh,-83,-33,7,7,x
GIV-Gai inh,129,106,103,x,104

Excerpt, nos. 29–33
29) Cc1ccc(OCC(O)CN2CC(C)CC(C)C2)cc1 (stereo not given)
30) COC(=O)COc1cc(OC)ccc1C(=O)OC
31) CCC(C)NC(=O)CSc1nc2ncccc2n2cccc12 (stereo not given)
32) CCN1C(=O)c2c(C(=O)N3CCOCC3)ncn2CC1(C)C(=O)NCCCOC(C)C (stereo not given)
33) Cc1ccc(C)c(NC(=O)C2CCCN2S(=O)(=O)c2ccc3c(c2)n(C)c(=O)c(=O)n3C)c1 (stereo not given)

entry no.,29,30,31,32,33
Sa growth inh,94,97,x,x,109
Sa growth inh second temp,98,83,x,x,95
HCMV UL50-53 inh,-14,-6,-83,-33,7
GIV-Gai inh,x,103,129,106,103

(cont.)
36) O=C(OCC1CC1)c1cnc(N2CCOCC2)nc1C(F)(F)F
37) COc1cccc(NS(=O)(=O)c2ccc3c(c2)N(C)C(=O)CC(=O)N3C)c1
38) COc1cccc(C2CC(c3cccs3)=NN2C(=O)CN2CCN(C)CC2)c1O (stereo not given)
39) Cc1nn(CCC(=O)NCc2cccc(Br)c2)c(=O)c2nn(-c3ccccc3)c(C)c12
40) O=C(Cn1nc(-c2ccccc2)ccc1=O)Nc1nccs1

entry no.,36,37,38,39,40
Sa growth inh,97,95,94,88,106
Sa growth inh second temp,92,78,91,95,95
HCMV UL50-53 inh,-18,-10,-55,x,-4
GIV-Gai inh,97,101,100,96,103

41) COc1cccc(/C=C2/Sc3ccc(C(=O)NCC(OC)OC)cc3NC2=O)c1
42) CCN(CC)S(=O)(=O)N1CCC(C(=O)NCc2ccc(C)cc2)CC1
43) CCc1ccc(S(=O)(=O)Nc2ccc(-c3ccc(N4CCCCCC4)nn3)cc2)cc1
44) Cc1ccc(C(=O)Nc2nnc(S(=O)(=O)N3CCOCC3)s2)cc1
45) CC(CCO)Nc1nc2c(c(=O)n(C)c(=O)n2C)n1Cc1ccccc1Br (stereo not given)

entry no.,41,42,43,44,45
Sa growth inh,98,100,109,120,86
Sa growth inh second temp,85,90,85,90,88
HCMV UL50-53 inh,x,3,x,-9,-4
GIV-Gai inh,103,102,103,107,101

46) COc1ccc(-c2nc(C#N)c(N(C)C)o2)cc1
47) CC1CCN(C(=O)CSc2nc(-c3ccc(C(C)C)cc3)no2)CC1
48) CCc1c(C)[nH]c2c1C(=O)C(CN1CCOCC1)CC2 (stereo not given)
49) CCSc1nsc(NC(=O)c2ccccc2Cl)n1
50) CCOc1ccccc1OC(=O)c1ccc2ncsc2c1

entry no.,46,47,48,49,50
Sa growth inh,112,81,x,x,109
Sa growth inh second temp,92,85,x,x,91
HCMV UL50-53 inh,-22,x,-12&-71&-13,-10,-10
GIV-Gai inh,101,107,103,98,x

51) O=C(c1ccc(Cl)cc1)N1CCc2ccccc2C1
52) CCNC(=O)CCn1cnc2oc(C)c(C)c2c1=O
53) Cc1ccc(C2OC3=C(C(=O)CC(C)(C)C3)C(N)=C2C#N)o1 (stereo not given)
54) Cc1ccc(S(=O)(=O)NCc2cn3ccccc3n2)c(C)c1
55) CCN1C(=S)NC2c3cc(Br)ccc3OC1(C)C2C(=O)Nc1ccc(Cl)cc1 (stereo not given)

entry no.,51,52,53,54,55
Sa growth inh,113,x,111,94,116
Sa growth inh second temp,87,x,95,100,82
HCMV UL50-53 inh,-5,-29,-30,4,x
GIV-Gai inh,103,106,139,102,98

Pulled by structure from the entries so far (five):
51) O=C(c1ccc(Cl)cc1)N1CCc2ccccc2C1
55) CCN1C(=S)NC2c3cc(Br)ccc3OC1(C)C2C(=O)Nc1ccc(Cl)cc1 (stereo not given)
52) CCNC(=O)CCn1cnc2oc(C)c(C)c2c1=O
54) Cc1ccc(S(=O)(=O)NCc2cn3ccccc3n2)c(C)c1
53) Cc1ccc(C2OC3=C(C(=O)CC(C)(C)C3)C(N)=C2C#N)o1 (stereo not given)

entry no.,51,55,52,54,53
Sa growth inh,113,116,x,94,111
Sa growth inh second temp,87,82,x,100,95
HCMV UL50-53 inh,-5,x,-29,4,-30
GIV-Gai inh,103,98,106,102,139

Next compounds
56) O=C(N/N=C/c1ccco1)C1c2ccccc2Oc2ccccc21
57) COc1ccc(C2Nc3ccccc3C(=O)N2Cc2ccco2)cc1COc1ccc(Cl)cc1 (stereo not given)
58) Cc1ccc(NC(=O)C2CCCN2S(=O)(=O)c2ccc3nc(-c4ccccc4)[nH]c3c2)cc1 (stereo not given)
59) CCC1CCCCN1C(=O)c1cc(-c2ccc(F)cc2)n[nH]1 (stereo not given)
60) CN(Cc1cccc(Cl)c1)Cc1cc2c(cc1O)CCC2

entry no.,56,57,58,59,60
Sa growth inh,89,x,131,x,106
Sa growth inh second temp,111,x,101,x,108
HCMV UL50-53 inh,-9,-22,x,-17,18
GIV-Gai inh,97,104,107,96,x

61) Cc1cccc(N2CCN(CCCNC(=O)c3sc4ncccc4c3-n3cccc3)CC2C)c1 (stereo not given)
62) O=C(CN1C(=O)COc2ccccc21)N(Cc1ccccc1)Cc1ccccn1
63) CC1=C(c2ccc(C)c(C)c2)S(=O)(=O)N=C1N1CCC(C(=O)NC(C)Cc2ccco2)CC1 (stereo not given)
64) Cc1ccc(CN(C)Cc2cc(=O)oc3cc4c(cc23)CCC4)o1
65) Cc1ccc(OCCn2cc(C(=O)c3ccco3)c3ccccc32)cc1C

entry no.,61,62,63,64,65
Sa growth inh,96,112,104,71,77
Sa growth inh second temp,88,95,85,97,82
HCMV UL50-53 inh,x,5,-107,-25,-5
GIV-Gai inh,101,109,100,x,97

66) CCNS(=O)(=O)c1cccc2nonc12
67) Cc1nc2ccc(NS(=O)(=O)c3ccccc3C(F)(F)F)cc2o1
68) FC(F)(F)c1cc(-c2ccccc2)nc(NC2CCCC2)n1
69) Cc1ccc2[nH]c(=O)c(-c3noc(CCCC(=O)NC4CCCC4)n3)cc2c1
70) Brc1ccc(-c2nnc3sc(CN4CCC5(CC4)OCCO5)cn23)cc1

entry no.,66,67,68,69,70
Sa growth inh,x,97,90,x,101
Sa growth inh second temp,x,91,82,x,95
HCMV UL50-53 inh,-73,1,x,-25,x
GIV-Gai inh,110,95,101,102,101

71) N/C(=N\OC(=O)CCN1C(=O)c2ccccc2C1=O)c1ccncc1
72) COC(=O)c1sc(NC(=O)c2ccccc2)c(C#N)c1C
73) COc1ccc(CNC(=O)c2c(-n3cccc3)sc3c2CCCC3)cc1
74) Oc1ccc(-c2nc3sc(-c4ccc(O)cc4)nc3s2)cc1
75) CCCC(c1nnnn1Cc1ccc(OC)cc1)N1CCC(C(N)=O)CC1 (stereo not given)

entry no.,71,72,73,74,75
Sa growth inh,102,94,99,97,106
Sa growth inh second temp,91,65,97,89,119
HCMV UL50-53 inh,-35,-9,-1,-17,23
GIV-Gai inh,107,x,x,x,107

76) N#Cc1ccc(COC(=O)Cn2c(-c3ccccc3)cc3ccccc32)cc1
77) CCOc1ccc(CNCc2c(C(=O)O)c(C)n(Cc3ccc(C)cc3)c2C)cc1
78) CN1C(=C(C#N)C(=O)COc2ccc(C#N)cc2)N(C)c2ccccc21
79) CCN(CCCNc1nnc2c3ccccc3n(CC)c2n1)c1cccc(C)c1
80) CC(C)(C)c1ccc(CCC(CC(=O)O)CC(=O)O)cc1

entry no.,76,77,78,79,80
Sa growth inh,77,112,80,85,123
Sa growth inh second temp,88,102,86,77,87
HCMV UL50-53 inh,-36,-7,-20,x,5
GIV-Gai inh,x,104,x,101,99

81) COc1ccc(Nc2nc(N3CCN(C)CC3)nc3ccccc23)c(OC)c1
82) O=C(CCc1nc(CN2CCN(S(=O)(=O)c3ccc(Cl)cc3)CC2)no1)N1CCCCC1
83) CCOc1ccc(N2NC(=O)C(C)(C)C2=O)cc1
84) CCOc1cc(NC(=O)C2CC2)c(OCC)cc1NC(=O)CCn1nnc2ccccc21

entry no.,81,82,83,84
Sa growth inh,102,105,x,107
Sa growth inh second temp,61,95,x,96
HCMV UL50-53 inh,x,x,-42,-20
GIV-Gai inh,102,109,123,107

The order is random. Share with any hit: about 0.83%.
